CSC inhib = blocks cancer stem cells | cancer stem cell-like cells viability, luminescence | inhibition, % at 7.5 µM | 300,000 compounds, 1.1% hits | AID 2717;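 active means mean at 75% or more and at least half the replicates too; tested in HMLE shEcad cells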;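 further: 0% = median of negative and 100% = median of positive control wells; the first replicate is given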
MT1-MMP act inh = blocks activation of human MT1-MMP. P50281. HT1080 RFP-PRO-GFP cells, GFP/RFP ratio fluorescence, overnight; percent of plate control window, DMSO zero. GFP/RFP ratio change, % at 20 µM. 360,000 compounds, 0.061% hits. AID 651647;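 active means GFP/RFP ratio change of at least 30% with cell ATP level not reduced by more than half and red fluorescence within 50% of control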; further: strong numbers were not always called active
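Assay system: HT1080 cells carrying an RFP-PRO-GFP reporter | Dosing: Single dose of 20 µM compound, 1% DMSO final | Incubation: Cells overnight before dosing, compound overnight, 37 °C, 5% CO2 | Evaluation: GFP/RFP fluorescence ratio | Control set: DMSO and RFP-L50D-GFP cell wells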
HIV Env fusion = HIV envelope-mediated fusion inhibition; inhibition, % at 12.3 µM; HeLa-JRFL Env/CEM21 cell fusion, luciferase; 360,000 compounds, 1.1% hits;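 active means mean replicate inhibition score of at least 50 and every replicate individually at or above 50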;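 further: 0% = plate neutral controls and 100% = maraviroc near 300 nM; one replicate is shown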
eIF4H FP inh = inhibitors of RNA binding by human eIF4H; Q15056; 290,000 compounds, 0.94% hits; inhibition, % at 35 µM; eIF4H fluorescence polarization binding assay; AID 2012;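 active means 50% or more with normal probe brightness, or confirmed in later tests; about a fifth of its hits are not listed in these tables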;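 further: calls also rest on retests at 20 µM and on dose response follow-up; 0% = protein and probe with vehicle and 100% = probe without protein; strong numbers were not always called active; many hits fall short of the cut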
PABP polyA inh = blocks human PABP binding to poly(A) RNA | P11940 | fluorescence polarization | inhibition, % at 35 µM | 290,000 compounds, 1% hits;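 active means 50% or more with normal probe brightness, or confirmed in later tests; about a fifth of its hits are not listed in these tables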;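 further: calls also rest on retests at 20 µM and on dose response follow-up; controls were probe without protein and protein plus probe with vehicle; some compounds called inactive have numbers as strong as hits; many hits fall short of the cut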
Target sequence (P11940 whole entry, looked up): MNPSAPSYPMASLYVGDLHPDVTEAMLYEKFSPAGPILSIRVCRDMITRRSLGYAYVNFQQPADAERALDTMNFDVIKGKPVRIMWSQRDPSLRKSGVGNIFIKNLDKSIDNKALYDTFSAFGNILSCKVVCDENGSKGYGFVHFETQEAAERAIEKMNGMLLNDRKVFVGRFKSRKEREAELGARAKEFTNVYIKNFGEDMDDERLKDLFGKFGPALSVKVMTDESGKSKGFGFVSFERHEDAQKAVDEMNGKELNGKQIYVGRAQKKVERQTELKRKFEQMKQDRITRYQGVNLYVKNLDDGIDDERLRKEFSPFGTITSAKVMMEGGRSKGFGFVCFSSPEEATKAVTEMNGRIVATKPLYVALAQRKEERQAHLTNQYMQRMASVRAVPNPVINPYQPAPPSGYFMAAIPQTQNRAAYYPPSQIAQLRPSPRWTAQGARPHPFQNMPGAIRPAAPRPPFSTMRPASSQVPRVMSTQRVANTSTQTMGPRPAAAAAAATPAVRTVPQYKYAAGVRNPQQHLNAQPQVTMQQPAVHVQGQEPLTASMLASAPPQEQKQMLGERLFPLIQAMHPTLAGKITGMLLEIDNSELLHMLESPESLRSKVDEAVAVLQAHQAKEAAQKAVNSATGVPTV
Yeast UUG start = modulators of start codon recognition fidelity in yeast. 350,000 compounds, 0.13% hits. S. cerevisiae UUG-firefly luciferase reporter, luminescence/redox ratio. activity score, % at 18.7 µM. AID 602363;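 active means replicate mean at a twofold rise or more, about +100% in these data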;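 further: firefly luciferase made from a UUG start codon reports start codon fidelity; reporter light over untreated wells divided by growth signal over untreated wells; some hits fall short of that in this replicate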
Rce1 inh = inhibitors of yeast Ras-converting enzyme; calls only; Q03530; AID 2563; 290,000 compounds, 0.27% hits; yeast membranes, quenched prenylated peptide cleavage fluorescence;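 active means fall in fluorescence gain of 50% or more versus controls, with final raw signal at or below 3038400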;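 further: plate controls were neutral control wells for no effect and wells lacking membranes for full effect; tested at 10 µM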
eIF4H FP inh retest = recorded beside eIF4H FP inh, whose call it bears; inhibition, %; compound at 20 µM; confirmation average;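 mean of two retest wells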
PABP polyA inh retest = also measured in PABP polyA inh; calls as there; inhibition, %; compound at 20 µM; confirmation repeats;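 mean of two retest wells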
MT1-MMP act inh RFP = second read-out of MT1-MMP act inh, no call of its own (marks repeat the call); RFP signal change, %; measured here: RFP expression control read;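 0 = vehicle wells; hits needed this value within 50% of zero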
An asterisk follows results filed as active. Not all compounds are listed. The share of hits here may be higher or lower than overall.

Screening CCNS(=O)(=O)c1ccc(NC(=O)Nc2cc(C)ccc2OC)cc1 returned CSC inhib 17, MT1-MMP act inh 1, HIV Env fusion 0, eIF4H FP inh 5, PABP polyA inh -1, Yeast UUG start -15, Rce1 inh inactive and MT1-MMP act inh RFP 2.
COc1ccc(S(=O)(=O)N2CCSC2c2ccc(N)cc2)cc1 (stereo not drawn) was read as CSC inhib -1, MT1-MMP act inh 3, eIF4H FP inh -4, PABP polyA inh 1, Yeast UUG start -23, Rce1 inh inactive and MT1-MMP act inh RFP 0.
For CS(=O)(=O)N(CCC#N)Cc1ccco1 the results were CSC inhib -2, MT1-MMP act inh 1, HIV Env fusion -14, eIF4H FP inh -8, PABP polyA inh -14, Rce1 inh inactive and MT1-MMP act inh RFP 3.
For CCC1CCCCN1C(=O)c1sc2ncnc(N(CC)CC)c2c1C (stereo not drawn) the results were CSC inhib -15, MT1-MMP act inh 1, HIV Env fusion 17, eIF4H FP inh -6, PABP polyA inh -12, Yeast UUG start -22, Rce1 inh inactive and MT1-MMP act inh RFP 3.
CN(C)S(=O)(=O)c1ccc(N2CCN(S(=O)(=O)c3ccc(F)cc3)CC2)c(Cl)c1 was read as CSC inhib 64, MT1-MMP act inh -27, HIV Env fusion 1, eIF4H FP inh -3, PABP polyA inh -3, Yeast UUG start 2 and MT1-MMP act inh RFP -19.
Cc1cc2c(n1-c1ccc(C(=O)O)cc1)CCCCC2 was read as CSC inhib 4, eIF4H FP inh 91*, PABP polyA inh 82* and Rce1 inh inactive.
For C/C(=C\C(=O)c1ccccc1)Nc1ccc(Br)c(Cl)c1 the results were MT1-MMP act inh -1, HIV Env fusion -31, Rce1 inh inactive and MT1-MMP act inh RFP 3.
For O=[N+]([O-])/C=C\c1ccc(N2CCCC2)c(F)c1 the results were MT1-MMP act inh -14, eIF4H FP inh 82, PABP polyA inh 5, Yeast UUG start -17, Rce1 inh inactive, eIF4H FP inh retest 1, PABP polyA inh retest 5 and MT1-MMP act inh RFP 1.
`Cc1cc(S(=O)(=O)NC2CCCCC2)ccc1OCC(=O)NCc1ccccn1` gave CSC inhib -14, MT1-MMP act inh 8, eIF4H FP inh 4, PABP polyA inh -2, Yeast UUG start -3, Rce1 inh inactive and MT1-MMP act inh RFP -1.
CCn1c(C(C)NC(=O)c2ccccc2C)n[nH]c1=S (stereo not drawn) was read as CSC inhib -4, MT1-MMP act inh 0, HIV Env fusion 9, eIF4H FP inh 0, PABP polyA inh -6, Yeast UUG start -5, Rce1 inh inactive and MT1-MMP act inh RFP 0.
Screening Oc1ccccc1/C=N/NC(=S)NCCc1ccccc1 returned CSC inhib 38, MT1-MMP act inh -1, HIV Env fusion 23, eIF4H FP inh 9, PABP polyA inh 9, Yeast UUG start -21, Rce1 inh inactive and MT1-MMP act inh RFP -8.
`O=c1c([N+](=O)[O-])cccn1Cc1cccc(Cl)c1` gave CSC inhib -19, MT1-MMP act inh 5, HIV Env fusion 7, eIF4H FP inh -7, PABP polyA inh 9, Yeast UUG start 17, Rce1 inh inactive and MT1-MMP act inh RFP 3.
For CCOc1ccc(Nc2nc(N)nc(CN3CCN(c4ccccc4F)CC3)n2)cc1 the results were CSC inhib -7, MT1-MMP act inh 6, HIV Env fusion 14, eIF4H FP inh 2, PABP polyA inh -18, Yeast UUG start -26, Rce1 inh inactive and MT1-MMP act inh RFP -8.
Screening CCCCN(CC)CCCNC(=O)c1cc2c(-c3ccc(OC)c(OC)c3)nn(C)c2s1 returned CSC inhib -2, MT1-MMP act inh 9, HIV Env fusion 8, eIF4H FP inh 8, PABP polyA inh -16, Yeast UUG start 18, Rce1 inh inactive and MT1-MMP act inh RFP 2.
O=S(=O)(NCCc1csc(-c2cccnc2)n1)c1ccc(Cl)s1 was read as CSC inhib 2, MT1-MMP act inh -5, HIV Env fusion 122*, eIF4H FP inh 19, PABP polyA inh 6, Yeast UUG start -13, Rce1 inh inactive and MT1-MMP act inh RFP -17.

Not a retest: entries from further up.
COc1ccc(S(=O)(=O)N2CCSC2c2ccc(N)cc2)cc1 (stereo not drawn) was read as CSC inhib -1, MT1-MMP act inh 3, eIF4H FP inh -4, PABP polyA inh 1, Yeast UUG start -23, Rce1 inh inactive and MT1-MMP act inh RFP 0.
For CS(=O)(=O)N(CCC#N)Cc1ccco1 the results were CSC inhib -2, MT1-MMP act inh 1, HIV Env fusion -14, eIF4H FP inh -8, PABP polyA inh -14, Rce1 inh inactive and MT1-MMP act inh RFP 3.
For CCC1CCCCN1C(=O)c1sc2ncnc(N(CC)CC)c2c1C (stereo not drawn) the results were CSC inhib -15, MT1-MMP act inh 1, HIV Env fusion 17, eIF4H FP inh -6, PABP polyA inh -12, Yeast UUG start -22, Rce1 inh inactive and MT1-MMP act inh RFP 3.
CN(C)S(=O)(=O)c1ccc(N2CCN(S(=O)(=O)c3ccc(F)cc3)CC2)c(Cl)c1 was read as CSC inhib 64, MT1-MMP act inh -27, HIV Env fusion 1, eIF4H FP inh -3, PABP polyA inh -3, Yeast UUG start 2 and MT1-MMP act inh RFP -19.

Next section:
Screening CC(C)CCOc1ccc(C2(C)NC(=O)N(CN3CCOCC3)C2=O)cc1 (stereo not drawn) returned CSC inhib 9, MT1-MMP act inh 3, eIF4H FP inh 3, PABP polyA inh 1, Yeast UUG start -9, Rce1 inh inactive and MT1-MMP act inh RFP 1.
`CCOC(=O)C1=C(C)Nc2nnnn2C1c1ccc(OC)c(Br)c1` (stereo not drawn) gave CSC inhib -9, MT1-MMP act inh 3, eIF4H FP inh 48, PABP polyA inh -14, Yeast UUG start 16, Rce1 inh inactive and MT1-MMP act inh RFP 1.
Screening COc1ccc(-c2nc(=S)[nH][nH]2)cc1OC returned CSC inhib -2, MT1-MMP act inh 2, HIV Env fusion -15, eIF4H FP inh 6, PABP polyA inh -6, Rce1 inh inactive and MT1-MMP act inh RFP 1.
Screening O=C1CC(N2CCC(c3nc4ccccc4s3)CC2)C(=O)N1Cc1ccccc1 (stereo not drawn) returned CSC inhib -1, MT1-MMP act inh 1, HIV Env fusion 27, eIF4H FP inh 1, PABP polyA inh 4, Yeast UUG start 2, Rce1 inh inactive and MT1-MMP act inh RFP -1.
`CCc1ccccc1N(CC(=O)NC1CCCCC1)C(=O)CCC(=O)Nc1ccccn1` gave CSC inhib -34, MT1-MMP act inh 1, HIV Env fusion 16, eIF4H FP inh -9, PABP polyA inh 9, Yeast UUG start 8, Rce1 inh inactive and MT1-MMP act inh RFP -1.
CC(/C=N/NC(=O)c1cc(-c2ccc(C)o2)[nH]n1)=C\c1ccccc1 was read as CSC inhib 26, MT1-MMP act inh 0, HIV Env fusion -7, eIF4H FP inh 0, PABP polyA inh -16, Yeast UUG start -4, Rce1 inh inactive and MT1-MMP act inh RFP 1.
For CC1(c2ccccc2)NC(=O)N(CC(=O)Nc2cc(S(=O)(=O)N3CCOCC3)ccc2Cl)C1=O (stereo not drawn) the results were CSC inhib -7, MT1-MMP act inh 7, HIV Env fusion 4, eIF4H FP inh -7, PABP polyA inh -3, Rce1 inh inactive and MT1-MMP act inh RFP 1.
Cc1nc2ccccc2cc1C(=O)N(C)Cc1ccccc1 was read as CSC inhib -12, MT1-MMP act inh 0, HIV Env fusion 1, eIF4H FP inh 3, PABP polyA inh 9, Yeast UUG start 9, Rce1 inh inactive and MT1-MMP act inh RFP 3.
O=C1CN(S(=O)(=O)c2cc(Br)ccc2Br)CCN1 was read as CSC inhib -13, MT1-MMP act inh 5, HIV Env fusion -5, Yeast UUG start -7 and MT1-MMP act inh RFP 3.
O=C(Nc1ccc(F)c(Cl)c1)C1CCCCC1 was read as CSC inhib 5, MT1-MMP act inh 0, HIV Env fusion 9, Yeast UUG start 1 and MT1-MMP act inh RFP -3.
Screening O=C(Nc1ccccc1)N1N=CCC1c1ccccc1 (stereo not drawn) returned MT1-MMP act inh -3, HIV Env fusion 0, eIF4H FP inh 8, PABP polyA inh -7, Yeast UUG start 7, Rce1 inh inactive and MT1-MMP act inh RFP -2.
`CCOC(=O)C1CCCN(C(=O)c2ccc3nc(-c4cccc(OC)c4)oc3c2)C1` (stereo not drawn) gave CSC inhib 51, MT1-MMP act inh -1, HIV Env fusion -28, eIF4H FP inh 12, PABP polyA inh -6, Yeast UUG start -44, Rce1 inh inactive and MT1-MMP act inh RFP -1.
For O=S(=O)(Nc1nc2c(s1)CCCC2)c1ccc(F)cc1 the results were CSC inhib -1, MT1-MMP act inh 8, eIF4H FP inh -1, PABP polyA inh -9, Yeast UUG start -8, Rce1 inh inactive and MT1-MMP act inh RFP 1.
For Cc1cc(C)n(C(C)CC(=O)N2CCc3ccccc32)n1 (stereo not drawn) the results were CSC inhib 7, MT1-MMP act inh 1, HIV Env fusion 6, eIF4H FP inh -4, PABP polyA inh 7, Yeast UUG start -9, Rce1 inh inactive and MT1-MMP act inh RFP 5.
For CCN(C(=O)c1cc2ccccc2oc1=O)c1ccccc1 the results were CSC inhib -3, MT1-MMP act inh 0, eIF4H FP inh -3, PABP polyA inh 2, Yeast UUG start -10, Rce1 inh inactive and MT1-MMP act inh RFP -2.
`Cc1nc2ccccc2c2oc(C(=O)N3CCc4ccccc4C3)cc12` gave CSC inhib 11, MT1-MMP act inh -4, HIV Env fusion 8, eIF4H FP inh -10, PABP polyA inh 6, Yeast UUG start -17, Rce1 inh inactive and MT1-MMP act inh RFP -9.
`O=C(CCc1cn2ccccc2n1)NC1CCCc2c1cnn2-c1ccccc1F` (stereo not drawn) gave CSC inhib -7, MT1-MMP act inh -1, HIV Env fusion -4, Yeast UUG start -11, Rce1 inh inactive and MT1-MMP act inh RFP -2.
Screening CNc1cc(N2CCN(S(=O)(=O)N(C)C)CC2)ccc1[N+](=O)[O-] returned CSC inhib 5, MT1-MMP act inh 2, HIV Env fusion -24, eIF4H FP inh 0, PABP polyA inh 17 and MT1-MMP act inh RFP 4.
`CC(C)(CNC(=O)Cc1ccc(Cl)cc1Cl)N1CCOCC1` gave CSC inhib -7, MT1-MMP act inh 3, HIV Env fusion 6, eIF4H FP inh -9, PABP polyA inh 3, Yeast UUG start -15, Rce1 inh inactive and MT1-MMP act inh RFP 6.
Cc1nn(Cc2cccc(Oc3ccccc3)c2)c(C)c1NC(=O)NC12CC3CC(CC(C3)C1)C2 was read as CSC inhib 18, MT1-MMP act inh -4, HIV Env fusion 10, eIF4H FP inh -6, PABP polyA inh 3, Rce1 inh inactive and MT1-MMP act inh RFP -11.
For CCOC(=O)c1c(-c2ccc(-c3ccccc3)cc2)csc1NC(=O)CNCCN(C)C the results were CSC inhib 99*, MT1-MMP act inh 5, HIV Env fusion 15, eIF4H FP inh -1, PABP polyA inh 10, Yeast UUG start -23, Rce1 inh inactive and MT1-MMP act inh RFP -3.
For COc1ccc(-c2cc(-c3ccc(Cl)cc3)c(C#N)c(SCC(=O)O)n2)cc1 the results were CSC inhib 49, MT1-MMP act inh 14, HIV Env fusion 9, eIF4H FP inh 13, PABP polyA inh 10, Yeast UUG start -19, Rce1 inh inactive and MT1-MMP act inh RFP -8.
Screening C/C(N)=C(/C#N)C(=O)COC(=O)CSc1ccccc1 returned CSC inhib -7, MT1-MMP act inh 0, HIV Env fusion -70, eIF4H FP inh 7, PABP polyA inh 6, Yeast UUG start -3, Rce1 inh inactive and MT1-MMP act inh RFP 7.
